Marburg entry inh – Marburg virus entry inhibition. AID 540276. Potency, µM (top dose mostly 37.8 µM), inactives show at the highest dose activity change, negative = inhibition, actives largely listed as inhibitors. 300,000 tested, 1.8% active. Marburg virus pseudotyped entry inhibition, cell reporter; control for the full effect not named in the record; about a third of the inactives were read at about 46 µM; active = well fitted inhibition curve with a large enough effect; inconclusive = small, poorly fitted or top-dose-only effect, or effect the other way; inactive = flat fitted curve, though single readings scatter; tested in HEK293 cells; about a fifth of its hits are not listed in these tables; note: % is set by controls: 0 for no effect and ±100 for the full control effect; luciferase read-out
StopGo reporter – FMDV 2A StopGo reporter, luciferase signal; AID 1159524; Potency, µM (series often up to 57.9 µM), without a hit: at the top dose signal change, negative = less light; human cells with a luciferase reporter of 2A StopGo recoding; control for the full effect not named in the record; 410,000 tested, 1.2% active; active = well fitted falling curve with a large enough effect; inconclusive = small, poorly fitted or top-dose-only effect; inactive = no such curve, though single readings can be large or run the other way; tested in HEK293T cells; note: % is set by controls: 0 for no effect and ±100 for the full control effect; nearly all actives have a fitted effect of over 45% in size; luciferase light after 4 h
NS1 inh – blocks influenza NS1 protein function | 270,000 tested, 0.4% active | S. cerevisiae slowed by influenza A NS1, growth recovery by OD600 | Potency, µM (series often up to 46.1 µM), for inactives: top-dose activity, positive = more growth; note: actives are rising curves; nearly all actives have a fitted effect of over 50% in size
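OD600 was taken as the measure of yeast growth restored by compound in an NS1-expressing S. cerevisiae strain. Cells had been washed out of glucose medium and diluted 1:100 into galactose -URA medium, pH 6.0.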
Cruzain Triton – inhibitors of Trypanosoma cruzi cruzain with detergent; AID 1478; 200,000 tested, 0.43% active; P25779; Potency, µM, for the others: max response, negative = inhibition, hits mostly inhibitors; purified cruzain, Z-FR-AMC fluorescence, 0.01% Triton; active = well fitted curve in the direction sought with a large enough effect; inconclusive = small, poorly fitted or top-dose-only effect, or another doubt; inactive = no such curve, though single readings can be large; an effect the other way counts as inactive or inconclusive;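 note: plate controls were neutral wells for no effect and buffer without enzyme for full effect; nearly all actives have a fitted effect of over 40% in size; top concentration of the series not given in the record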
Target sequence (P25779 123-467 limits assumed): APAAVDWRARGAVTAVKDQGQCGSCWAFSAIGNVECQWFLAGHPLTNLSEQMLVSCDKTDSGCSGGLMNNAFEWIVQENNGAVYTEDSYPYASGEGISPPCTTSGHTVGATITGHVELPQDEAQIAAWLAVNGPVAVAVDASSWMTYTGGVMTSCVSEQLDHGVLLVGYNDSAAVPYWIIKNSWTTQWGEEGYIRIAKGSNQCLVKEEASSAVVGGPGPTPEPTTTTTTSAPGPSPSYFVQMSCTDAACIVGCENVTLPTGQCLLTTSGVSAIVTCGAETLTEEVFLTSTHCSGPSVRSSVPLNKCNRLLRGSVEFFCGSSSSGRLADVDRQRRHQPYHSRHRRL
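Z-FR-AMC hydrolysis (2 uM substrate) by cruzain (1.5 nM) monitored kinetically at ex 360/em 450 nm after 15 min room-temperature compound exposure; 0.01% Triton X-100, pH 5.5, 5 mM DTT.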
SARS PLP yeast – SARS-CoV PLP inhibition in yeast; 330,000 tested, 0.19% active; S. cerevisiae expressing SARS-CoV PLpro, growth rescue; control for the full effect not named in the record; Potency, µM (highest dose often 32.9 µM), for the others: top-dose activity, positive = growth rescue; note: 0% is about no effect; nearly all actives have a fitted effect of over 55% in size; growth read by luminescence after 48 h
Cruzain noTriton – cruzain (T. cruzi) inhibition without detergent | P25779 | purified cruzain, Z-FR-AMC fluorescence, no detergent | Potency, µM, for inactives: max response, negative = inhibition, actives largely listed as inhibitors | 200,000 tested, 2.3% active | AID 1476; active = well fitted curve in the direction sought with a large enough effect; inconclusive = small, poorly fitted or top-dose-only effect, or another doubt; inactive = no such curve, though single readings can be large; an effect the other way counts as inactive or inconclusive;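 note: plate controls were enzyme without inhibitor for no effect and buffer without enzyme for full effect; nearly all actives have a fitted effect of over 40% in size; top concentration of the series not given in the record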
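Detergent-free condition (0.00005% Triton X-100) in acetate buffer pH 5.5 with DTT. 1.5 nM enzyme and compound were pre-mixed 15 min, then 2 uM Z-FR-AMC substrate added; reaction progress from fluorescence change between first and third reads (60 s).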
RE007 growth inh – less growth of the S. pombe RE007 Vpr strain; Potency, µM (series often up to 92.2 µM), for the others: at the highest dose activity change, negative = less growth; AID 651644; S. pombe RE007 Vpr strain, BacTiter-Glo ATP luminescence, 24 h; control for the full effect not named in the record; 360,000 tested, 0.21% active; active = well fitted falling curve with a large enough effect; inconclusive = small, poorly fitted or top-dose-only effect; inactive = no such curve, though single readings can be large or run the other way;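 note: % is set by controls: 0 for no effect and ±100 for the full control effect; nearly all actives have a fitted effect of over 50% in size; the assay follows cell death caused by Vpr and the record does not say whether a fall means rescue or toxicity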
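Fission yeast strain RE007, carrying one chromosomally integrated HIV-1 vpr copy, was seeded at OD 0.01 in PMG+AL medium with 23 nL pinned compound. After 24 h at 30 °C and 99% humidity, viability was read by BacTiter-Glo luminescence.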
LASV entry inh – blocks Lassa virus binding to or entry into cells; AID 540256; 300,000 tested, 1.2% active; Lassa virus pseudotype entry inhibition, cell reporter; control for the full effect not named in the record; Potency, µM (series often up to 37.9 µM), inactives show top-dose activity change, negative = inhibition, usual class: inhibitors; active means well fitted inhibition curve with a large enough effect; inconclusive means small, poorly fitted or top-dose-only effect, or effect the other way; inactive means flat fitted curve, though single readings scatter; tested in HEK293 cells; note: % is set by controls: 0 for no effect and ±100 for the full control effect; nearly all actives have a fitted effect of over 50% in size; luciferase read-out
An asterisk follows results filed as active; [ ] = another dose, or the depositor's remark. Unless noted, calls come from the whole dose curve; as a rule, active means well fitted rising curve with a large enough effect; inconclusive means small, poorly fitted or top-dose-only effect; inactive means no such curve, though single readings can be large or run the other way. Potency is the fitted concentration of half-maximal effect.

Results for CSc1ccc(Cl)c(C(=O)N2CCN(CC(=O)N3CCCC3)CC2)c1 ?
Marburg entry inh: -0.4%; StopGo reporter: -11.3%; SARS PLP yeast: -0.2%; RE007 growth inh: 29.2%; LASV entry inh: 2.8%

How did O=C(Nc1cc(Cl)ccc1O)C1CC(c2ccccc2Cl)=NO1 (stereo not given) do in these assays?
StopGo reporter: 66.6%[activator]; NS1 inh: -32.4%; SARS PLP yeast: -12.8%; RE007 growth inh: 20.2%

How did CCOc1ccc(NC(=O)c2cnccn2)cc1 do in these assays?
Marburg entry inh: inconclusive; StopGo reporter: -27.3%; NS1 inh: -6.1%; Cruzain Triton: -3.2%; SARS PLP yeast: 8.8%; Cruzain noTriton: 6.1%; RE007 growth inh: -24.4%; LASV entry inh: inconclusive

Results for Cc1cc(=O)n2[nH]c(-c3ccco3)nc2n1 ?
Marburg entry inh: inconclusive; NS1 inh: 4.7%; Cruzain Triton: 5.0%; SARS PLP yeast: 10.6%; Cruzain noTriton: 4.7%; RE007 growth inh: -12.8%; LASV entry inh: -3.1%

How did COc1ccc(-c2noc(CN3CCN(c4ccccc4F)CC3)n2)cc1OC do in these assays?
Marburg entry inh: 16.1%; StopGo reporter: -11.9%; NS1 inh: -34.6%; Cruzain Triton: -3.9%; SARS PLP yeast: -8.4%; Cruzain noTriton: inconclusive; RE007 growth inh: 6.1%; LASV entry inh: -8.7%

How did CC[n+]1c(/C=C(/C)SC)sc2ccccc21 do in these assays?
Marburg entry inh: 16.6%; StopGo reporter: -21.8%; NS1 inh: 6.2%; Cruzain Triton: -11.6%; SARS PLP yeast: 3.55µM*; Cruzain noTriton: -4.5%; RE007 growth inh: -23.6%; LASV entry inh: 11.3%

What do the screens show for `COc1cc(/C=C/C(=O)O)cc(S(=O)(=O)Nc2ccccc2SC)c1OC`?
Marburg entry inh: 6.5%; StopGo reporter: -10.6%; NS1 inh: 10.7%; Cruzain Triton: -0.9%; SARS PLP yeast: 14.7%; Cruzain noTriton: -10.7%; RE007 growth inh: 9.3%; LASV entry inh: 6.5%

Results for CC1CCCC(C)N1C(=O)COC(=O)c1ccco1 (stereo not given) ?
Marburg entry inh: 6.9%; StopGo reporter: 34.1%[activator]; SARS PLP yeast: 6.8%; RE007 growth inh: 15.7%; LASV entry inh: 3.1%

How did CN(C)CCCNC(=O)C[C@H]1C[C@H](C(=O)N2CCCCC2)[C@@]2(C)c3[nH]c4cc(CCC(=O)N(C)C)ccc4c3CCN2C1=O do in these assays?
Marburg entry inh: 3.4%; StopGo reporter: -6.6%; SARS PLP yeast: -7.2%; RE007 growth inh: -6.5%

What do the screens show for `COc1ccc(OCC(=O)N2CCN(C(=O)c3ccc(F)cc3)CC2)cc1`?
Marburg entry inh: 18.9%[46.1 µM]; StopGo reporter: -13.7%; NS1 inh: 7.9%; SARS PLP yeast: 0.1%; RE007 growth inh: 4.0%; LASV entry inh: 22.6%[46.1 µM]

How did COc1nc2ccccc2nc1OC do in these assays?
StopGo reporter: -7.3%; NS1 inh: 0.9%; SARS PLP yeast: 0.8%; RE007 growth inh: 7.2%

Results for COc1ccc(-c2nc(N)nc(C)c2Oc2ccccc2Br)c(O)c1 ?
Marburg entry inh: inconclusive; StopGo reporter: 0.0%; NS1 inh: -82.5%; Cruzain Triton: -7.7%; SARS PLP yeast: -15.3%; Cruzain noTriton: 0.1%; RE007 growth inh: -2.2%; LASV entry inh: inconclusive

How did CC(C)(Oc1ccc(Cl)cc1)C(=O)N/N=C/c1cn[nH]c1-c1ccccc1 do in these assays?
Marburg entry inh: -1.3%; StopGo reporter: -27.6%; NS1 inh: 7.9%; Cruzain Triton: -11.8%; SARS PLP yeast: 6.4%; Cruzain noTriton: inconclusive; RE007 growth inh: -12.3%; LASV entry inh: inconclusive

How did CCN(CC)S(=O)(=O)c1ccc(NC2c3ccccc3C(=O)N2c2ccc(C)cn2)cc1 (stereo not given) do in these assays?
StopGo reporter: 27.0%; NS1 inh: 4.2%; Cruzain Triton: -2.8%; SARS PLP yeast: -14.6%; Cruzain noTriton: 1.6%; RE007 growth inh: -1.0%

What do the screens show for `O=C(Nc1nc(-c2ccccc2)c(-c2ccccc2)s1)c1ccc(S(=O)(=O)N2CCCCC2)cc1`?
Marburg entry inh: inconclusive; StopGo reporter: -17.8%; NS1 inh: 29.0%; Cruzain Triton: 0.7%; SARS PLP yeast: 19.1%; Cruzain noTriton: 3.98µM*; RE007 growth inh: 3.6%; LASV entry inh: inconclusive

Results for O=C(CSC(=S)N1CCOCC1)N1N=CCC1c1ccccc1 (stereo not given) ?
Marburg entry inh: -6.7%; StopGo reporter: 15.3%; NS1 inh: -0.8%; Cruzain Triton: 0.7%; SARS PLP yeast: 19.4%; Cruzain noTriton: 6.3%; RE007 growth inh: 5.9%; LASV entry inh: 4.3%

What do the screens show for `CCSc1ccccc1C(=O)N1CCN(c2ccccc2F)CC1`?
Marburg entry inh: -20.7%; StopGo reporter: 4.4%; NS1 inh: -8.1%; Cruzain Triton: -9.9%; SARS PLP yeast: inconclusive; Cruzain noTriton: -6.5%; RE007 growth inh: 5.0%; LASV entry inh: 3.0%

Results for COc1ccc(CN2CCC(N3CC(C)OC(C)C3)CC2)c(OC)c1 (stereo not given) ?
Marburg entry inh: 5.0%[46.1 µM]; StopGo reporter: -4.0%; NS1 inh: -1.1%; SARS PLP yeast: 0.1%; RE007 growth inh: -18.9%; LASV entry inh: 9.1%

What do the screens show for `C=CCNC(=O)CC(=O)N/N=C/c1cccc(Br)c1`?
Marburg entry inh: -1.2%; NS1 inh: 5.2%; Cruzain Triton: -1.8%; SARS PLP yeast: -5.2%; Cruzain noTriton: 0.3%; RE007 growth inh: 0.8%; LASV entry inh: -10.6%

What do the screens show for `O=C1c2ccccc2C(=O)C1c1ccc(Br)cc1`?
Marburg entry inh: inconclusive; StopGo reporter: 27.3%; NS1 inh: 5.1%; SARS PLP yeast: -7.4%; RE007 growth inh: 2.1%; LASV entry inh: -1.8%[46.1 µM]

How did CN(/N=C/c1c[nH]c2ccccc12)c1cnn(-c2ccc(F)c(Cl)c2)c(=O)c1Cl do in these assays?
Marburg entry inh: 5.9%; StopGo reporter: -11.9%; NS1 inh: 1.8%; Cruzain Triton: 0.2%; SARS PLP yeast: 1.4%; Cruzain noTriton: inconclusive; RE007 growth inh: -17.9%; LASV entry inh: -18.6%

Results for CCOC(=O)N1CCN(C(=O)Cn2nc(C)n3nc(-c4ccc(CC)cc4)cc3c2=O)CC1 ?
StopGo reporter: -10.4%; NS1 inh: 12.5%; SARS PLP yeast: 3.6%; RE007 growth inh: 2.2%

What do the screens show for `CC(/C=C1\SC(=S)N(NC(=O)c2ccncc2)C1=O)=C\c1ccccc1`?
Marburg entry inh: 15.1%[46.1 µM]; StopGo reporter: -16.5%; NS1 inh: -35.1%; SARS PLP yeast: 2.2%; RE007 growth inh: -0.4%; LASV entry inh: -17.1%

Results for COc1cc(CNCCc2ccccc2)cc(Br)c1OCC(=O)Nc1ccccc1C ?
Marburg entry inh: 20.6µM*; StopGo reporter: -13.8%; SARS PLP yeast: -0.9%; RE007 growth inh: inconclusive; LASV entry inh: 3.3%

How did COc1ccc(C)cc1-n1c(SCC(=O)NCC2CCCO2)nc2c([nH]c3ccccc32)c1=O (stereo not given) do in these assays?
Marburg entry inh: inconclusive; StopGo reporter: -15.7%; NS1 inh: inconclusive; SARS PLP yeast: 7.3%; RE007 growth inh: 4.5%; LASV entry inh: -4.4%

How did Cc1ccccc1NC(=S)NNC(=O)c1ccco1 do in these assays?
Marburg entry inh: 15.6%[46.1 µM]; StopGo reporter: 19.1%; NS1 inh: 1.5%; SARS PLP yeast: 2.1%; RE007 growth inh: 5.3%; LASV entry inh: 25.5%[46.1 µM]

What do the screens show for `Cc1sc(NC(=O)C2C3CCC(O3)C2C(=O)O)c(C(=O)OC(C)C)c1-c1ccc(Cl)cc1` (stereo not given)?
Marburg entry inh: 109.9%; StopGo reporter: 0.0%; NS1 inh: 9.8%; Cruzain Triton: -10.7%; SARS PLP yeast: 1.9%; Cruzain noTriton: 8.3%; RE007 growth inh: 30.3%; LASV entry inh: 3.7%

Results for O=C(CC1SC(=Nc2ccc(OC(F)F)cc2)N(CCC2=CCCCC2)C1=O)Nc1ccccc1F (stereo not given) ?
Marburg entry inh: 5.6%; StopGo reporter: inconclusive; NS1 inh: -11.7%; Cruzain Triton: -1.6%; SARS PLP yeast: -4.8%; Cruzain noTriton: inconclusive; RE007 growth inh: -10.9%; LASV entry inh: -16.4%

Results for c1ccc2c(c1)nc(-c1ccncc1)n2CCNc1nc(CN2CCCCC2)cs1 ?
StopGo reporter: -22.4%; NS1 inh: 17.1%; SARS PLP yeast: 6.4%; RE007 growth inh: -23.2%

What do the screens show for `CS(=O)(=O)N(CC(=O)NCCSc1ccccc1)c1cc(C(F)(F)F)ccc1Cl`?
Marburg entry inh: -18.2%[46.1 µM]; StopGo reporter: 13.2%; Cruzain Triton: -7.5%; Cruzain noTriton: -0.3%; LASV entry inh: 6.8%[46.1 µM]

Results for Cn1c(=NC(=O)CCl)sc2ccccc21 ?
Marburg entry inh: inconclusive; StopGo reporter: inconclusive; NS1 inh: -54.8%; Cruzain Triton: 2.9%; SARS PLP yeast: -6.9%; Cruzain noTriton: -14.3%; RE007 growth inh: inconclusive; LASV entry inh: inconclusive

How did O=C1CC(C(=O)Nc2ccccc2C(=O)O)C(c2ccccc2)O1 (stereo not given) do in these assays?
Marburg entry inh: 2.9%; StopGo reporter: -5.1%; NS1 inh: 11.0%; Cruzain Triton: -1.7%; SARS PLP yeast: 3.3%; Cruzain noTriton: -0.1%; RE007 growth inh: -8.6%; LASV entry inh: 5.2%

How did Cc1ccc(NC(=O)Cc2ccccc2)cc1S(=O)(=O)N1CCOCC1 do in these assays?
Marburg entry inh: 25.8%; StopGo reporter: 33.8%[activator]; SARS PLP yeast: -1.3%; RE007 growth inh: -7.7%; LASV entry inh: inconclusive

Results for COc1ccccc1CNC(=O)CCc1nnc2ccc(NCCCN3CCCC3=O)nn12 ?
Marburg entry inh: 1.8%[46.1 µM]; StopGo reporter: -10.1%; NS1 inh: 8.0%; SARS PLP yeast: 4.0%; RE007 growth inh: -6.0%; LASV entry inh: -19.9%[46.1 µM]

Compound activity as filed in PubChem.
